Source: PubChem (several laboratories)
Ecoli growth = inhibitors of Escherichia coli growth; OD600, 23 h; stronger effect = lower value; OD600 absorbance (test concentration not listed); 0.21% of 330,000 active;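 active = OD600 absorbance below the run mean of sample wells minus 3.6 SD, in any replicate, cut at about 0.56 in these data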;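 note: stock transfer was 300 nL into about 60 µL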
AF4-AF9 inh = MLL-AF4/AF9 protein interaction inhibition; P42568; AlphaScreen, biotin-AF4 peptide binding to FLAG-AF9; inhibition, % at 10 µM; 0.47% of 350,000 active; AID 651704;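 active = every replicate reaching a set inhibition limit, whatever the replicate mean, cut at about 25% in these data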;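 note: 0% = plate neutral control median and 100% = total signal loss; the record names both 10 and 1 µM as test concentration; the first replicate is given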
Target sequence (P42568 whole entry, looked up): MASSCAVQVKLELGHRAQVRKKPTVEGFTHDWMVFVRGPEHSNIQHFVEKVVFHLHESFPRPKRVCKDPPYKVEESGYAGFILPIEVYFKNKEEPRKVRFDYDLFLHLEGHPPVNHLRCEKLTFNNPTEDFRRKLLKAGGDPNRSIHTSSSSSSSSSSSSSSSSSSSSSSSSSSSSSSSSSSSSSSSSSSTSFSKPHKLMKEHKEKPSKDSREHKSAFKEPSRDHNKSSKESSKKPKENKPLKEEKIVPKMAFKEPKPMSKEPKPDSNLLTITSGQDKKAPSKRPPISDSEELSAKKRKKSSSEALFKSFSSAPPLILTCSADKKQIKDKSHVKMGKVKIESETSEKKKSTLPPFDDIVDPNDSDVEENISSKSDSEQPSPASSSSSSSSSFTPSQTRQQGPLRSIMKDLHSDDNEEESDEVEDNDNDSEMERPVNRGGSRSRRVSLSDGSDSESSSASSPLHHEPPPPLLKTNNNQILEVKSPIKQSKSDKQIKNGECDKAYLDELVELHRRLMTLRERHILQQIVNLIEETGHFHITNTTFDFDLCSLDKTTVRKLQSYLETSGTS
UCH37 DUB inh = human UCH37 deubiquitinating enzyme inhibition. Q9Y5K5. purified proteasome/UCH37, Ub-AMC cleavage fluorescence. inhibition, % (test concentration not listed). 0.33% of 330,000 active. AID 588478;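 active = mean of two replicates above 20%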;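 note: 0% = compound-free wells with enzyme and 100% = wells lacking proteasome; stock transfer was 100 nL into about 20 µL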
Target sequence (Q9Y5K5 whole entry, looked up): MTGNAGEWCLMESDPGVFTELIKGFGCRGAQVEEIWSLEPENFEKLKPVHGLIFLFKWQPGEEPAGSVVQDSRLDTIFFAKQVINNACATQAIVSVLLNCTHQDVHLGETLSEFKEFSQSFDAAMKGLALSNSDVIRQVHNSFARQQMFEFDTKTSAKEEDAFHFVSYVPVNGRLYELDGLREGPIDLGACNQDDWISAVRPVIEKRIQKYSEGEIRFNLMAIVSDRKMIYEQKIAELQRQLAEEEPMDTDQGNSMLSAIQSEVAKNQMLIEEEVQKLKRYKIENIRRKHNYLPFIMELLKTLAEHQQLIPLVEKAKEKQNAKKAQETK
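Reagent: Ub-AMC substrate; assay system: Proteasome-associated human UCH37 deubiquitinase; controls: no-proteasome and no-compound wells; read-out: % inhibition of Ub-AMC cleavage fluorescence; timing: 30 min preincubation with enzyme, 25 min cleavage at room temperature; signal: AMC fluorescence from Ub-AMC cleavage, excitation 355 nm, emission 460 nm; buffer or medium: Tris-HCl pH 7.4 plus ovalbumin, ATP-MgCl2, DTT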
A1 inh = inhibitors of the anti-apoptotic protein A1, read as caspase activation; MEF A1-2A-BIM cells, Caspase-Glo 3/7 luminescence, 3 h; percent of clofoctol response, vehicle zero; caspase activation, % (no concentration beside the values); 0.066% of 330,000 active; AID 2462;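 active = over half of replicate activation scores above 10%, or exactly half above 10 with the replicate mean above 10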;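 note: wells of about 30 µL received 50 nL stock; many hits fall short of the cut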
Beta cell apopt = beta cell apoptosis inhibition; INS-1E cytokine-induced death, ATP luminescence, 48 h; percent of positive-control rescue, neutral wells zero; protection from apoptosis, % (no concentration beside the values); 0.8% of 300,000 active; AID 435005;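 active = all replicates at 75% or more, or half of them and the mean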;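 note: 0% = cytokine-treated negative control wells and 100% = positive control rescue; higher means more ATP so stronger rescue from cytokine killing; wells of about 40 µL received 100 nL stock; the first replicate is given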
Ecoli rRNA inh = inhibitors of bacterial rRNA selective over humanized ribosomes. AID 720706. GFP signal change (wild-type ribosome), % (concentration not given with the values). 1.6% of 350,000 active. E. coli WT GFP vs humanized-ribosome RFP mutants, fluorescence, 24 h; stronger effect = lower value; DMSO median 0, no signal -100;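 active = significant combined selectivity score with lowered wild-type GFP, culture density cut under 30%, mutant RFP and density less affected; inactive = any of these conditions unmet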; note: one replicate is shown; some compounds called inactive have numbers as strong as hits
T cruzi inh = blocks replication of Trypanosoma cruzi. T. cruzi beta-gal in NIH3T3, luminescence, 90 h. inhibition, % (concentration not given with the values). 1.4% of 300,000 active. AID 1885;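 active = mean inhibition across valid replicates above about 55%, limit read from the data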;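 note: signal also drops with host cell toxicity which is not excluded here; 0% = plate median of DMSO wells and 100% = zero luminescence signal; higher percent means less beta-gal luminescence so fewer parasites; stock transfer was 50 nL into about 50 µL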
FGF22 binding = FGF22 (human) thermal shift binding; AID 651658; calls only at 9.99 µM; Q9HCT0; recombinant FGF22 thermal shift, SYPRO orange fluorescence; percent of sucrose octasulfate shift, DMSO zero; 1.5% of 340,000 active;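 active = melting point raised past a set limit in the mean and every replicate; three in four hits are not shown here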
Target sequence (Q9HCT0 whole entry, looked up): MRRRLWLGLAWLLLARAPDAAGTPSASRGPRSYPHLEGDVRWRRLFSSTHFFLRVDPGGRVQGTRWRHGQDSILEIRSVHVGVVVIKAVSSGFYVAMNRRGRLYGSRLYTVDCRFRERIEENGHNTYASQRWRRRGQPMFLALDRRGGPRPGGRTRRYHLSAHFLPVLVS
Ecoli rRNA inh OD600 = second read-out of Ecoli rRNA inh, no call of its own (marks repeat the call); OD600 change, %; measured here: OD600 growth;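 optical density of the mix in the first replicate; 0 = DMSO median and -100 = no signal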
Ecoli rRNA inh RFP = also measured in Ecoli rRNA inh; calls as there; RFP signal change, %; measured here: RFP humanized mutant strains;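 first replicate; 0 = DMSO median and -100 = no signal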
* hit, by the source's call; i = inactive; . = not tested or not shown. Some of the compounds tested; the hit share may differ from the screen's.

SMILES	Ecoli growth	AF4-AF9 inh	UCH37 DUB inh	A1 inh	Beta cell apopt	Ecoli rRNA inh	Ecoli rRNA inh OD600	Ecoli rRNA inh RFP	T cruzi inh	FGF22 binding
COc1ccc([C@H]2CC(=O)C=C(c3ccc(NC(C)=O)cc3)C2)cc1OC	.	1.4	4.3	0.9	1	6	2	-4.6	.	i
Fc1ccccc1Cc1noc(CN2CCN(Cc3ccc4c(c3)OCO4)CC2)n1	0.65	1.0	1.4	0.0	-1	3	8	-0.8	60*	i
CCOC(=O)c1ccc(NC(=S)N(CCCN2CCCCCC2)Cc2ccco2)cc1	0.67	.	1.2	0.3	-3	.	.	.	49	.
CCN(CC)CCCN1C(=O)c2oc3ccccc3c(=O)c2C1c1cc(OC)ccc1OC (stereo not given)	0.72	.	2.4	0.9	-10	.	.	.	-11	.
Cc1ccc(C(=O)c2cc([N+](=O)[O-])ccc2N2CCCCC2)c(C)c1	0.76	8.5	8.1	2.4	65	8	-6	-11	4	i
CCCCCCc1cc2cc(/C(N)=N/NC(=O)c3ccncc3)c(=O)oc2cc1O	0.68	.	5.5	-0.6	6	-10	-1	-4.9	.	i
CCn1cc(-c2cc(C(=O)O)c3ccccc3n2)c(C)n1	0.67	.	-363	0.0	-1	.	.	.	-15	.
Cc1cc(C)cc(NC(=O)C2C3C=CC4(O3)C2C(=O)N(CCCN2CCCC2)C4C(=O)NC2CCCC(C)C2C)c1 (stereo not given)	0.72	1.5	4.4	-0.3	0	-1	-7	-0.4	15	i
O=C(O)CSCCCC(=O)Nc1ccc(Br)cc1	0.65	-12	2.9	0.8	-4	7	0	0.9	-5	i
NC(=O)C1=C[C@@H](c2ccc(C(F)(F)F)cc2)C[C@@H](OCc2ccc(CO)cc2)O1	.	.	-0.6	0.0	-5	-7	-17	-3.0	14	i
COC(=O)C[C@H]1c2cc(F)ccc2S(=O)(=O)N1c1ccc(N(C)C)cc1	.	-1.1	-0.3	0.7	5	-8	-5	-9.7	-1	i
CCCC(=O)NC(=S)Nc1cccc(Cl)c1N1CCCCC1	0.72	.	0.4	0.3	0	.	.	.	1	.
Clc1ccc(OCCOCCN2CCc3ccccc3C2)c(Cl)c1	0.61	.	3.9	-0.1	3	.	.	.	59*	.
CCn1c(=O)n(CC(=O)Nc2cc(OC)ccc2OC)c(=O)c2ccccc21	0.74	.	0.9	0.1	3	.	.	.	11	.
Cc1cccc(C(=O)N(CC(=O)Nc2sc(C)c(C)c2C(N)=O)C2CCCC2)c1	0.66	4.3	1.0	-0.7	0	1	-19	6.3	-2	i
Clc1nc2c(-c3ccccc3)nnn2c2ccccc12	.	8.7	.	-5.1	-5	10	-2	0.8	64*	i
C/C(=C\C(=O)c1ncc(C(F)(F)F)cc1Cl)N(C)C	0.69	-1.1	7.2	-0.1	-2	.	.	.	6	i
COc1cccc(C(C(=O)NC2CCCC2)N(C(=O)c2ccco2)C2CC2)c1OC (stereo not given)	0.77	.	-2.4	0.8	-2	.	.	.	2	.
O=C(CCc1nnc2ccc(N3CCCCC3)nn12)NCc1ccco1	0.69	-1.4	3.2	0.2	-7	7	9	-2.3	-14	i
CCOC(=O)c1c(NC=O)sc2c1CCC2	0.66	-6.8	2.3	-0.7	.	5	12	-1.1	-15	i
Cc1cc(C)nc(N2CCC(C(=O)Nc3cccc(C(F)(F)F)c3)CC2)n1	0.69	.	1.0	-0.2	5	.	.	.	15	.
CCN(CC)CCCN(Cc1cc2cc3c(cc2[nH]c1=O)OCO3)C(=S)Nc1ccccc1OC	0.71	3.5	-84	0.3	-5	19	14	6.1	9	i
CCOc1ncccc1C(=O)OCC(=O)N(CC(C)C)C1CCS(=O)(=O)C1 (stereo not given)	0.63	-6.8	-1.1	0.4	1	8	10	2.1	-2	i
COc1ccc(CCN(C)C(=S)Nc2ccc(SC(F)F)cc2)cc1OC	0.68	-2.6	3.7	-0.8	.	-6	1	-3.0	17	i
CCOC(=O)CN(Cc1ccccc1)S(=O)(=O)c1ccc(NC(C)=O)cc1	0.69	3.7	1.3	1.0	-4	-29	-12	-8.3	-10	i
CC(=O)c1cccc(NC(=O)C2CCCN(S(=O)(=O)c3cccc4cccnc34)C2)c1 (stereo not given)	0.76	0.0	4.8	-0.8	-2	-4	-17	-2.1	-11	i
O=C(N/N=C/c1cccc(Oc2ccccc2)c1)c1ccncc1	.	6.4	.	0.2	1	-21*	-6.1*	0.4*	-4	i
COc1cccc(C(=O)N/N=C(\C)c2cccc(NC(=O)c3ccc(F)cc3)c2)c1OC	.	-7.3	.	-1.3	6	-9	-11	-1.5	2	i
O=C(NCCCN1CCCCCC1)c1ccc(N2CCCC2=O)cc1	0.76	.	-3.5	-0.7	-5	.	.	.	-7	.
CCCSc1ncnc2c1oc1ccccc12	0.72	-59	-0.9	0.2	1	.	.	.	-10	i
CN1C2C=C3C(C#N)=C(N)C(C#N)(C#N)C(c4ccc(Br)cc4)C3C1CC2 (stereo not given)	0.68	.	-6.2	0.0	5	.	.	.	20	.
O=C(/C=C/c1ccccc1)Nc1cc(NC(=O)/C=C/c2ccccc2)cc(C(=O)O)c1	0.69	1.9	6.9	0.3	-6	-28	-50	7.1	-13	i
COc1ccccc1N=Nc1c(O)[nH]c2ccc(Br)cc12	0.71	-12	0.6	-0.6	-7	5	3	6.2	0	i
CC(C)(C)CC(=O)Nc1ccc(S(=O)(=O)NC2=NCCCCC2)cc1	0.68	7.4	-0.8	-0.4	-2	7	6	3.6	.	i
CCOc1ccccc1CNC(=O)c1nn(C)c2c1CS(=O)(=O)c1ccccc1-2	0.69	-3.3	2.0	0.5	-1	-7	-9	2.0	2	i
O=C(N[C@@H](Cc1ccc(O)cc1)C(=O)O)c1ccncc1	.	-10	3.5	2.5	-16	-1	5	-4.2	-13	i
CCN(CC)S(=O)(=O)c1ccc2nc(CCl)[nH]c2c1	0.7	-0.9	3.6	-0.7	-1	18	10	-0.8	-4	i
O=C(NCCN1CCOCC1)c1ccc2c(c1)N(Cc1ccccc1)C(=O)c1ccccc1S2	0.69	0.1	1.4	-0.9	-3	0	-6	16	10	i
CCCC(=O)Nc1ccc(C(=O)COC(=O)c2cc(C)oc2C)cc1	0.69	-1.4	1.6	0.1	-6	-5	-3	12	.	i
Cc1oc(C(N)=O)nc1-c1ccccc1	0.65	-2.6	0.2	-0.1	-2	15	7	2.7	-15	i
COc1cc(C(=O)N/N=C/c2ccc3c(c2)c2ccccc2n3C)ccc1O	.	-21	.	0.4	20	-1	-17	-5.5	-2	i
CCN(C(=O)CN1CCc2ccccc21)c1c(N)n(Cc2ccccc2)c(=O)[nH]c1=O	0.71	0.6	-9.9	2.1	.	8	5	6.0	-3	i
CC(=O)c1[nH]c(C)c(C(=O)N2CCCC(Nc3ccc(C(C)C)cc3)C2)c1C (stereo not given)	0.66	1.5	2.2	.	.	-3	-1	0.5	0	i
CC(C)CN1CN(Cc2ccccc2)CNC1=S	0.69	-2.2	1.1	-0.2	-6	-1	-3	-5.2	-14	i
COc1cc2nc(N(C)C)nc(N)c2cc1OC	0.76	.	-228	0.8	22	.	.	.	63*	.
COc1ccc(CC(=O)N(C)CC(=O)Nc2cccc(F)c2)cc1S(=O)(=O)N1CCOCC1	.	-2.8	.	-0.4	2	6	14	-1.8	-3	i
CCOC(=O)C=C1CCN(c2ncc(C(F)(F)F)cc2Cl)CC1	0.71	.	4.8	.	-1	.	.	.	-3	.
Cc1ccc(S(=O)(=O)N(C)c2ccc(C(=O)NCC3CCCO3)cc2)cc1 (stereo not given)	0.64	.	-0.2	0.2	1	.	.	.	1	.
S=c1[nH]nc(CSc2nc3ccccc3s2)n1C1CCCCC1	0.68	.	2.0	-0.4	9	.	.	.	7	.
Cc1ccc(SCCC(=O)NCc2ccco2)cc1	0.73	.	0.7	-0.1	-2	.	.	.	0	.

An excerpt of these results, with bars between the fields:
SMILES | Ecoli growth | AF4-AF9 inh | UCH37 DUB inh | A1 inh | Beta cell apopt | Ecoli rRNA inh | Ecoli rRNA inh OD600 | Ecoli rRNA inh RFP | T cruzi inh | FGF22 binding
COc1cc(C(=O)N/N=C/c2ccc3c(c2)c2ccccc2n3C)ccc1O | . | -21 | . | 0.4 | 20 | -1 | -17 | -5.5 | -2 | i
CCN(C(=O)CN1CCc2ccccc21)c1c(N)n(Cc2ccccc2)c(=O)[nH]c1=O | 0.71 | 0.6 | -9.9 | 2.1 | . | 8 | 5 | 6.0 | -3 | i
CC(=O)c1[nH]c(C)c(C(=O)N2CCCC(Nc3ccc(C(C)C)cc3)C2)c1C (stereo not given) | 0.66 | 1.5 | 2.2 | . | . | -3 | -1 | 0.5 | 0 | i

The results go on.
SMILES	Ecoli growth	AF4-AF9 inh	UCH37 DUB inh	A1 inh	Beta cell apopt	Ecoli rRNA inh	Ecoli rRNA inh OD600	Ecoli rRNA inh RFP	T cruzi inh	FGF22 binding
CCN(Cc1ccccc1)C(=O)Cn1cc2c(n1)CCCC2	0.72	-1.2	1.8	-0.1	-6	2	7	0.0	8	i
CN(Cc1nccn1C)C(=O)CC1C(=O)NCCN1CC(c1ccccc1)c1ccccc1 (stereo not given)	0.69	4.5	-4.9	0.3	-3	-1	2	-1.5	-1	i
CCCOc1ccc(CCCN=C(N)N)cc1Cl	0.57	3.3	5.4	0.4	-5	.	.	.	29	i
COc1ccc(-c2nc(CS(=O)CC(=O)NCc3cccnc3)c(C)o2)cc1 (stereo not given)	0.72	-5.9	5.8	-0.3	-7	5	2	-0.3	-22	i
COc1ccc(C(=O)CC(c2ccccc2)S(=O)(=O)c2ccc(C)cc2)cc1 (stereo not given)	0.69	.	3.8	-0.5	6	.	.	.	1	.
O=C(O)CCCc1nc(-c2ccc(Cl)cc2)no1	0.66	.	4.2	0.1	1	.	.	.	-27	.
Cc1cc(NS(=O)(=O)c2cccc([N+](=O)[O-])c2)no1	0.73	0.6	-0.1	-1.7	-7	11	3	0.8	0	i
Cc1ccc(N(CC(=O)O)S(C)(=O)=O)cc1	0.67	-0.2	3.3	1.2	.	11	14	0.4	-5	i
CN(C)S(=O)(=O)c1cccc(C(=O)Nc2ccc(C(=O)Nc3cccc(S(N)(=O)=O)c3)cc2)c1	0.66	1.5	3.1	-0.5	5	-24*	-17*	3.7*	.	.
COc1ccc(C(C(=O)NC2CCCC2)N(Cc2ccc(C)cc2)C(=O)c2ccn[nH]2)cc1OC (stereo not given)	0.71	.	2.6	0.6	.	.	.	.	-1	.
COC(=O)N/N=C/c1ccc(Oc2ccccc2)cc1	.	0.7	.	-3.6	-5	-12	8	-11	-3	i
CCN(CC)C(=O)Oc1ccc2c(c1)O/C(=C\c1ccco1)C2=O	0.7	2.1	-8.6	-1.3	-2	5	13	-1.9	8	i
Cc1noc(C)c1C(=O)N(C)Cc1ccccc1	0.67	-4.2	2.9	0.2	-6	14	11	1.7	-15	i
O=C(CSc1nc2ccccc2c(=O)[nH]1)c1ccccc1	0.72	-4.4	5.4	0.8	4	3	-1	-3.7	-5	i
O=C(NC12CC3CC(CC(C3)C1)C2)N1CC2Cc3cccc(=O)n3C(C2)C1 (stereo not given)	0.7	.	3.3	1.1	-2	.	.	.	-2	.
